AF4-AF9 inh – inhibitors of AF4 peptide binding to AF9, primary screen, biochemical, AlphaScreen, biotin-AF4 peptide, FLAG-AF9, single point; Protein AF-9 (Homo sapiens), P42568; inhibition, % at 10 µM; actives 0.47% (n = 350,000);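 active = every replicate reaching a set inhibition limit, whatever the replicate mean, cut at about 25% in these data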;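 note: 0% = plate neutral control median and 100% = total signal loss; the record names both 10 and 1 µM as test concentration; the first replicate is given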
Target sequence (P42568 whole entry, looked up): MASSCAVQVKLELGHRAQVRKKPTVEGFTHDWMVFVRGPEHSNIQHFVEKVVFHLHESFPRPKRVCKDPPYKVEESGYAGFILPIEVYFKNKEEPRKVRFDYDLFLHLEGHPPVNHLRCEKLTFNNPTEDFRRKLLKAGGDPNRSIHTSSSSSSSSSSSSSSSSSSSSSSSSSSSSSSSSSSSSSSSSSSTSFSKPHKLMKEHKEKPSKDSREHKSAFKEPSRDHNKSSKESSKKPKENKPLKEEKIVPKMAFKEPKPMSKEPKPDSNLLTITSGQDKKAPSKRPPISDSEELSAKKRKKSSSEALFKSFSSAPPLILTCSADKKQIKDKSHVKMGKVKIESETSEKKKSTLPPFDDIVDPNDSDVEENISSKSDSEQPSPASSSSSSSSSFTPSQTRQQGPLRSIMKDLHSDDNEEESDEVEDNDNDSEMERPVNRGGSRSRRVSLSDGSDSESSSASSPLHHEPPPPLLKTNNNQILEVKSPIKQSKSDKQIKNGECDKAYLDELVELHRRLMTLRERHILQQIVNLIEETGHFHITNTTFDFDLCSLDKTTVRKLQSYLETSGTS
rRNA inh HTS – reduced GFP signal of wild-type E. coli, primary screen, bacterial rRNA inhibitor project, GFP/RFP fluorescence, OD600, single point; E. coli WT GFP vs humanized-ribosome RFP mutants, 24 h; active compounds read low; DMSO median 0, no signal -100; GFP signal change (wild-type ribosome), % (no concentration beside the values); actives 1.6% (n = 350,000);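 active = significant combined selectivity score with lowered wild-type GFP, culture density cut under 30%, mutant RFP and density less affected; inactive = any of these conditions unmet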; note: one replicate is shown; some compounds called inactive have numbers as strong as hits
FGF22 binding – binders of human FGF22 protein, primary screen, FGF22 synaptogenesis inhibitor project, biophysical, thermal shift, single point; recombinant FGF22 thermal shift, SYPRO orange fluorescence; percent of sucrose octasulfate shift, DMSO zero; Fibroblast growth factor 22 (Homo sapiens), Q9HCT0; actives 1.5% (n = 340,000); calls only at 9.99 µM;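 active = melting point raised past a set limit in the mean and every replicate; three in four hits are not shown here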
Target sequence (Q9HCT0 whole entry, looked up): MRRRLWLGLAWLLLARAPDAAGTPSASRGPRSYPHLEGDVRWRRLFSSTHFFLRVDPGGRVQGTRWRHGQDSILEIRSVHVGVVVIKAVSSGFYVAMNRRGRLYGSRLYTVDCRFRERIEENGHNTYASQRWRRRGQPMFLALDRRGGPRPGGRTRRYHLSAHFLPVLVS
rRNA inh HTS OD600 – recorded beside rRNA inh HTS, whose call it bears; OD600 change, %; measured here: OD600 growth;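 optical density of the mix in the first replicate; 0 = DMSO median and -100 = no signal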
rRNA inh HTS RFP – also measured in rRNA inh HTS; calls as there; RFP signal change, %; measured here: RFP humanized mutant strains;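 first replicate; 0 = DMSO median and -100 = no signal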
Numbers without * were called inactive; i = inactive; & = joins results of further samples. These rows are one share of the data; rates above refer to the full screens.

nr	SMILES	AF4-AF9 inh	rRNA inh HTS	rRNA inh HTS OD600	rRNA inh HTS RFP	FGF22 binding
1	C[C@H]1CN([C@@H](C)CO)C(=O)c2cccc(NC(=O)NC3CCCCC3)c2O[C@H]1CN(C)Cc1ccc(C(=O)Nc2ccccc2N)cc1	-0.3	-0.6	2.6	0.3	i
2	C[C@H]1CCCCO[C@H](CN(C)C(=O)Cc2ccccc2)[C@@H](C)CN([C@@H](C)CO)C(=O)c2cc(NC(=O)c3ccccc3)ccc2O1	-1.3	0.6	-2.6	-0.5	i
3	CCCCn1nnnc1C(c1cc2ccccc2o1)N1CCCCC1 (centres undefined)	-6.3	-1.7	-21.3	-6.7	i
4	CCS(=O)(=O)N1CC2(C1)CN(S(=O)(=O)c1cn(C)cn1)[C@H](CO)c1[nH]c3cc(OC)ccc3c12	-3.4	2.3	14.5	-1.1	i
5	CCCNC(=O)N1C[C@@H](C)[C@@H](OC)CN(C)C(=O)c2ccc(NS(C)(=O)=O)cc2OC[C@@H]1C	-3.1	3.8	3.6	1.0	i
6	CN(C)C(=O)c1cccc(-c2ccc([C@@H]3[C@@H](C#N)N(C(=O)C4CCCCC4)[C@@H]3CO)cc2)c1	-2.0	-1.4	4.7	-0.3	i
7	CCCN(C)C[C@H]1Oc2cc(C#CCN(C)C)ccc2S(=O)(=O)N([C@H](C)CO)C[C@H]1C	9.8	1.4	0.8	-0.5	i
8	COc1ccc2c3c([nH]c2c1)[C@@H](CO)N(C(C)=O)CC31CCN(C(=O)CN2CCOCC2)CC1	-0.5	5.8	9.0	1.8	i
9	C[C@@H]1CN([C@@H](C)CO)C(=O)c2cc(NS(=O)(=O)c3ccccc3)ccc2O[C@@H](C)CCCCO[C@H]1CN(C)C(=O)c1ccccc1	-1.0	5.3	0.7	1.3	i
10	C[C@@H]1CN([C@@H](C)CO)S(=O)(=O)c2ccc(C#CCN(C)C)cc2O[C@@H]1CN(C)C(=O)CC1CC1	1.0	-0.1	8.0	0.6	i
11	Cn1ccc2c(-c3ccccc3F)cc3c(c21)C1CCC3C1 (centres undefined)	1.3	-4.9	3.9	17.5	i
12	CN1C(=O)c2cc(NC(=O)NC3CCCC3)ccc2OC[C@H]2O[C@H](CC(=O)O)CC[C@@H]21	-1.2	2.1	3.1	1.3	i
13	CC(C)C#Cc1ccc([C@@H]2[C@@H](CO)N(C(=O)CN(C)C)[C@H]2C#N)cc1	0.9	4.0	-6.3	-2.7	i
14	COc1ccc(S(=O)(=O)Nc2cccc3c2O[C@H](CN(C)C(=O)Nc2ccc(C(F)(F)F)cc2)[C@H](C)CN([C@H](C)CO)C3=O)cc1	-1.7	-5.8	-2.6	-2.8	i
15	CC(C)C[C@H]1CNC(=S)N1C[C@H]1CCCN1C[C@H](Cc1ccc(O)cc1)N1C[C@H](Cc2ccc(O)cc2)N(CCc2ccccc2)C1=S	2.7	2.3	1.7	13.6	i
16	CC(C)(C)S(=O)N1Cc2cc(C(=O)N[C@@H]3CCN(Cc4ccccc4)C3)nc(-c3cccc(-c4cc5ccccc5o4)c3)c2[C@@H]1CCO (some centres undefined)	2.8	-1.6	12.9	60.6	i
17	O=C(COC(=O)c1cc(S(=O)(=O)N2CCOCC2)ccc1Cl)Nc1ccc(Cl)cn1	-1.6	-0.9	-7.9	-2.5	i
18	CC(=O)Nc1cc(-c2cccc(C(=O)NCCO)c2)cn2c(-c3ccc(F)c(Cl)c3)cnc12	2.8	-9.4	-6.2	26.6	i
19	CC(C)NC(=O)N(C)C[C@@H]1Oc2c(NS(=O)(=O)c3ccc(Cl)cc3)cccc2C(=O)N([C@@H](C)CO)C[C@H]1C	-2.3	-0.2	-2.4	-1.3	i
20	Cc1cc(=O)oc2c(O)c(O)ccc12	-4.1	8.8	0.8	-2.1	i
21	CC(C)CC1OC(C(C)C)Cc2[nH]c(=S)[nH]c(=O)c21 (centres undefined)	-10.8	-3.4	-13.5	-4.5	i
22	C[C@H]1CN([C@@H](C)CO)C(=O)c2cc(NC(=O)CCCN(C)C)ccc2O[C@@H]1CN(C)Cc1ccc(Oc2ccccc2)cc1	17.2	1.7	2.2	2.9	i
23	CO[C@@H]1CN(C)C(=O)c2ccc(NC(=O)NC(C)C)cc2OC[C@@H](C)N(Cc2ccccc2)C[C@H]1C	0.9	0.3	-8.0	5.1	i
24	C[C@@H]1CN([C@H](C)CO)C(=O)c2cccc(NC(=O)C3CCCCC3)c2O[C@@H]1CN(C)C(=O)Nc1ccc(F)cc1	-1.3	-4.2	1.8	-1.5	i
25	COc1cccc(-c2ccc3n(c2=O)C[C@@H]2[C@@H](CO)[C@H](C(=O)NCC4CC4)N(C(=O)NC(C)C)[C@H]32)c1	0.1	-0.3	4.4	-3.7	i
26	O=C(C[C@@H]1C[C@@H]2c3cc(NS(=O)(=O)c4ccc(F)cc4)ccc3O[C@@H]2[C@@H](CO)O1)NCCN1CCCCC1	5.9	-0.2	6.0	1.1	i
27	C[C@H](NC(=O)C[C@H]1CC[C@H](NC(=O)CN2CCOCC2)[C@H](CO)O1)c1ccccc1	1.4	-2.1	-3.2	-1.8	i
28	O=C(Nc1ccc(-c2ccccc2)cc1)[C@@H]1[C@@H](CO)[C@@H]2Cn3c(cccc3=O)[C@@H]2N1CC1CCCC1	13.0	-6.0	-30.4	37.3	i
29	C[C@@H]1CN([C@H](C)CO)C(=O)Cc2cc(NS(=O)(=O)c3ccccc3)ccc2O[C@@H]1CN(C)CC1CCCCC1	2.6	-1.3	-6.6	2.1	i
30	FC(F)(F)c1cccc(-c2cncc(N3CCN(CCN4CCCC4)CC3)n2)c1	9.9	-2.8	-2.9	13.4	i

Remaining list, next part:
nr	SMILES	AF4-AF9 inh	rRNA inh HTS	rRNA inh HTS OD600	rRNA inh HTS RFP	FGF22 binding
31	COc1ccc(-c2cnc3c(c2)C(=O)N([C@@H](C)CO)C[C@@H](C)[C@@H](CN(C)S(C)(=O)=O)O3)cc1	-7.3	3.8	0.8	-1.4	i
32	COc1cc(C2C3=C(COC3=O)Oc3cc4c(cc32)OCO4)cc(OC)c1O (centres undefined)	1.0	-5.9	0.2	11.0	i
33	C[C@@H]1CN([C@H](C)CO)C(=O)Cc2cc(NC(=O)CCN3CCOCC3)ccc2O[C@H]1CN(C)Cc1ccc(Oc2ccccc2)cc1	5.5	-2.7	1.0	8.8	i
34	C[C@H](CO)N1C[C@H](C)[C@H](CN(C)S(C)(=O)=O)Oc2ccc(NC(=O)CCC(F)(F)F)cc2CC1=O	-1.2	5.0	13.4	-0.7	i
35	O=C(Nc1cccc(Cl)c1)N[C@H]1CC[C@H](CCNC(=O)C2CCCC2)O[C@H]1CO	-1.3	-1.5	-9.2	3.0	i
36	C[C@H](CO)N1C[C@H](C)[C@H](CN(C)S(=O)(=O)c2cccs2)Oc2ncc(C#Cc3cccc(F)c3)cc2C1=O	-3.5	0.1	16.9	0.9	i
37	CN(C[C@@H]1[C@@H](c2ccccc2)[C@H](CO)N1C(=O)c1ccccc1)C(=O)C1CCC1	-1.7	-1.4	0.7	1.8	i
38	O=C(C[C@H]1CC[C@@H]2[C@H](COC[C@H](O)CN2C(=O)c2ccncc2)O1)NC1CCC1	-2.6	2.0	8.0	-3.4	i
39	CC1CCCC(NC(=O)CSc2nnc(-c3cccnc3)o2)C1C (centres undefined)	-0.7	20.1	20.4	1.9	i
40	CNC[C@H]1Oc2cc(C#CCOC)ccc2S(=O)(=O)N([C@@H](C)CO)C[C@H]1C	-2.6	4.6	10.1	-2.1	i
41	CCCCCCn1cc(CN2CC(N3CCN(Cc4cccc(C)c4)CC3)CS2(=O)=O)nn1 (centres undefined)	-1.5	-16.2	-7.4	0.7	i
42	CCC(=O)N[C@@H]1CC[C@H](CC(=O)OC)O[C@H]1CO	1.1	1.0	7.2	-2.9	i
43	C[C@@H]1CN([C@@H](C)CO)C(=O)c2cc(NC(=O)CCCCCC(=O)Nc3ccccc3N)ccc2O[C@H]1CN(C)Cc1ccc(C(F)(F)F)cc1	0.6	-10.8	-14.1	2.9	i
44	C[C@@H]1CN([C@@H](C)CO)S(=O)(=O)c2ccc(C#Cc3ccncc3)cc2O[C@@H]1CN(C)CC1CC1	1.4	2.5	3.6	4.4	i
45	CO[C@H]1CN(C)C(=O)c2ccc(NC(=O)C3CC3)cc2OC[C@@H](C)N(C(=O)CN(C)C)C[C@H]1C	0.4	0.5	-0.2	0.2	i
46	C[C@H](CO)N1C[C@H](C)[C@H](CN(C)CC2CC2)Oc2ccc(NC(=O)Cc3cn(C)c4ccccc34)cc2C1=O	16.4	3.5	-7.3	0.4	i
47	CCCC(=O)Nc1ccc2c(c1)OC[C@H](C)N(Cc1ccccc1)C[C@@H](C)[C@@H](OC)CN(C)C2=O	2.5	-2.0	-8.1	0.6	i
48	CC(=O)Nc1ccc(C(=O)N2CCCC(c3cc(C(=O)NCc4cccnc4)no3)C2)cc1 (centres undefined)	-2.9	8.7	7.6	-1.0	i
49	CCCNC(=O)N1CC2(C1)[C@@H](c1ccccc1)[C@@H](CO)N2C(=O)C1CC1	-1.6	1.9	-4.4	-1.3	i
50	C[C@H](CO)N1C[C@H](C)[C@@H](CN(C)Cc2ccc3c(c2)OCCN3C)OCc2cn(nn2)CCCC1=O	-0.7	0.4	1.7	-1.9	i
51	C[C@@H]1CCCCO[C@@H](CN(C)Cc2ccc3c(c2)OCO3)[C@H](C)CN([C@@H](C)CO)C(=O)c2cc(NC(=O)C3CCCCC3)ccc2O1	-0.4	2.3	-2.2	-1.9	i
52	CCCCNC(=O)CNC(=O)c1nn(-c2ccc(OC)c(OC)c2)c(=O)c2ccccc12	2.7	2.6	6.9	2.3	i
53	CS(=O)(=O)Nc1ccc2c(c1)[C@@H]1C[C@H](CC(=O)NCc3cccnc3)O[C@H](CO)[C@@H]1O2	-1.3	0.0	-0.9	-5.0	i
54	C[C@H](CO)N1C[C@H](C)[C@H](CN(C)C(=O)Nc2ccc(F)cc2)OCCCC[C@H](C)Oc2ccc(NS(C)(=O)=O)cc2C1=O	-2.3	-1.3	6.4	-1.1	i
55	C[C@@H]1CCCCO[C@H](CN(C)C(=O)CCC(F)(F)F)[C@H](C)CN([C@@H](C)CO)C(=O)c2cc(NS(=O)(=O)c3ccc(Cl)cc3)ccc2O1	-3.5&-2.8	0.9&4.1	5.1&5.5	-0.1&-2.6	i
56	Cc1ccccc1CN1C(=O)C(C)Sc2ccc(-c3ccco3)cc21 (centres undefined)	-4.2	3.8	24.5	11.0	i
57	N#C[C@@H]1[C@H](c2ccc(C3=CCCCC3)cc2)[C@H](CO)N1C(=O)NC1CCCCC1	0.4	4.6	-9.3	-3.9	i
58	COc1ccc(-c2cnc3c(c2)C(=O)N([C@H](C)CO)C[C@H](C)[C@H](CN(C)C)O3)cc1	-13.4&-12.3	6.2	1.0	-3.3	i
59	COCC#Cc1ccc2c(c1)O[C@@H](CN(C)Cc1ccccc1F)[C@@H](C)CN([C@@H](C)CO)S2(=O)=O	7.1	-6.0	-19.1	0.9	i
60	CCNC(=O)C[C@@H]1CC[C@H]2[C@@H](COC[C@H](O)CN2C(=O)Nc2c(C)noc2C)O1	-1.4	6.0	-1.2	-5.0	i

The final 2 compounds of the part above open the next one.
nr	SMILES	AF4-AF9 inh	rRNA inh HTS	rRNA inh HTS OD600	rRNA inh HTS RFP	FGF22 binding
59	COCC#Cc1ccc2c(c1)O[C@@H](CN(C)Cc1ccccc1F)[C@@H](C)CN([C@@H](C)CO)S2(=O)=O	7.1	-6.0	-19.1	0.9	i
60	CCNC(=O)C[C@@H]1CC[C@H]2[C@@H](COC[C@H](O)CN2C(=O)Nc2c(C)noc2C)O1	-1.4	6.0	-1.2	-5.0	i
61	C[C@@H]1CN([C@@H](C)CO)C(=O)c2cc(C#CCN(C)C)cnc2O[C@H]1CN(C)C(=O)CCN1CCCCC1	1.1	8.3	17.4	-3.4	i
62	CCc1nc(N2CCN(C(=O)CCCl)CC2)c2c3c(sc2n1)CCCC3	-2.6	-29.4	-68.2	-3.4	i
63	c1ccc(CN2CCC3CC2c2ccc(N4CCOCC4)cc23)cc1 (centres undefined)	0.6	0.4	3.7	1.5	i
64	COc1ccc(S(=O)(=O)N[C@H]2CC[C@@H](CC(=O)NCc3ccccc3F)O[C@H]2CO)cc1	0.0	0.8	18.9	-2.4	i
65	C[C@@H]1CN([C@H](C)CO)C(=O)c2c(c3ccccc3n2C)-c2ccccc2CO[C@@H]1CN(C)C(=O)CCC(F)(F)F	-2.2	-1.0	-8.8	-1.0	i
66	O=C(N[C@@H]1CC[C@@H](CCNS(=O)(=O)c2ccc(Cl)cc2)O[C@H]1CO)c1cccc(F)c1	-1.9	-3.1	-9.9	2.1	i

Arranged by the number under rRNA inh HTS OD600 (ascending): 3 of the compounds above.
cpd	canonical_smiles	AF4-AF9 inh	rRNA inh HTS	rRNA inh HTS OD600	rRNA inh HTS RFP
63	c1ccc(CN2CCC3CC2c2ccc(N4CCOCC4)cc23)cc1 (centres undefined)	0.6	0.4	3.7	1.5
61	C[C@@H]1CN([C@@H](C)CO)C(=O)c2cc(C#CCN(C)C)cnc2O[C@H]1CN(C)C(=O)CCN1CCCCC1	1.1	8.3	17.4	-3.4
64	COc1ccc(S(=O)(=O)N[C@H]2CC[C@@H](CC(=O)NCc3ccccc3F)O[C@H]2CO)cc1	0.0	0.8	18.9	-2.4
